# Cruzain inh Det – blocks cruzain activity in presence of Triton detergent | P25779 | purified cruzain, Z-FR-AMC fluorescence, 0.01% Triton | Potency, µM, without a hit: max response, negative = inhibition, hits mostly inhibitors | 0.43% of 200,000 active | AID 1478; active = well fitted curve in the direction sought with a large enough effect; inconclusive = small, poorly fitted or top-dose-only effect, or another doubt; inactive = no such curve, though single readings can be large; an effect the other way counts as inactive or inconclusive;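 note: plate controls were neutral wells for no effect and buffer without enzyme for full effect; nearly all actives have a fitted effect of over 40% in size; top concentration of the series not given in the record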
# Target sequence (P25779 123-467 limits assumed): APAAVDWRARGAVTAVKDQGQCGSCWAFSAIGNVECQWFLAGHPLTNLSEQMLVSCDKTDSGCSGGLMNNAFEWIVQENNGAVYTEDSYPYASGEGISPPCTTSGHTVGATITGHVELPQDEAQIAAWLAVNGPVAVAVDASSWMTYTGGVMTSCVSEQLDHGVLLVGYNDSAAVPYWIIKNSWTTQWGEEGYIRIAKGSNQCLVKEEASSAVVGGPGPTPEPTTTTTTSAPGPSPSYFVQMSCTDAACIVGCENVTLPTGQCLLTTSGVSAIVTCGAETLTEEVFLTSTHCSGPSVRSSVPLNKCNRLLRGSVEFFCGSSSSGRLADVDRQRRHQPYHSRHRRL
#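 15 min RT preincubation of 1.5 nM cruzain with compound, then 2 uM Z-FR-AMC added; kinetic AMC fluorescence, 60 s delta. Triton X-100 0.01%, pH 5.5.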
# RE007 growth inh – less growth of the S. pombe RE007 Vpr strain; Potency, µM (series often up to 92.2 µM), inactives show at the top dose activity change, negative = less growth; 0.21% of 360,000 active; S. pombe RE007 Vpr strain, BacTiter-Glo ATP luminescence, 24 h; control for the full effect not named in the record; active = well fitted falling curve with a large enough effect; inconclusive = small, poorly fitted or top-dose-only effect; inactive = no such curve, though single readings can be large or run the other way;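 note: % is set by controls: 0 for no effect and ±100 for the full control effect; nearly all actives have a fitted effect of over 50% in size; the assay follows cell death caused by Vpr and the record does not say whether a fall means rescue or toxicity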
#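 Fission yeast strain RE007, carrying one chromosomally integrated HIV-1 vpr copy, was seeded at OD 0.01 in PMG+AL medium with 23 nL pinned compound. After 24 h at 30 °C and 99% humidity, viability was read by BacTiter-Glo luminescence.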
# StopGo reporter – lowers the luciferase signal of an FMDV 2A StopGo reporter. Potency, µM (doses to about 57.9 µM), for the others: at the top dose signal change, negative = less light. 1.2% of 410,000 active. human cells with a luciferase reporter of 2A StopGo recoding; control for the full effect not named in the record. AID 1159524; active = well fitted falling curve with a large enough effect; inconclusive = small, poorly fitted or top-dose-only effect; inactive = no such curve, though single readings can be large or run the other way; tested in HEK293T cells; note: % is set by controls: 0 for no effect and ±100 for the full control effect; nearly all actives have a fitted effect of over 45% in size; luciferase light after 4 h
# MARV entry inh – Marburg virus entry inhibition. Marburg virus pseudotyped entry inhibition, cell reporter; control for the full effect not named in the record; about a third of the inactives were read at about 46 µM. Potency, µM (highest dose often 37.8 µM), for the others: top-dose activity change, negative = inhibition, hits mostly inhibitors. 1.8% of 300,000 active. AID 540276; active = well fitted inhibition curve with a large enough effect; inconclusive = small, poorly fitted or top-dose-only effect, or effect the other way; inactive = flat fitted curve, though single readings scatter; tested in HEK293 cells; about a fifth of its hits are not listed in these tables; note: % is set by controls: 0 for no effect and ±100 for the full control effect; luciferase read-out
# NS1 function inh – inhibitors of influenza NS1 protein function. S. cerevisiae slowed by influenza A NS1, growth recovery by OD600. Potency, µM (series often up to 46.1 µM), for inactives: at the top dose activity, positive = more growth. 0.4% of 270,000 active; note: actives are rising curves; nearly all actives have a fitted effect of over 50% in size
#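 S. cerevisiae expressing influenza A NS1, grown in glucose, washed, then diluted 1:100 into pH 6.0 -URA galactose medium with 23 nl compound. Growth recovery read as OD600; NS1-free strain serves as control.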
# Lassa entry inh – Lassa virus entry inhibition; Lassa virus pseudotype entry inhibition, cell reporter; control for the full effect not named in the record; Potency, µM (doses to about 37.9 µM), for inactives: at the highest dose activity change, negative = inhibition, hits mostly inhibitors; 1.2% of 300,000 active; AID 540256; active means well fitted inhibition curve with a large enough effect; inconclusive means small, poorly fitted or top-dose-only effect, or effect the other way; inactive means flat fitted curve, though single readings scatter; tested in HEK293 cells; note: % is set by controls: 0 for no effect and ±100 for the full control effect; nearly all actives have a fitted effect of over 50% in size; luciferase read-out
# SARS PLpro yeast – inhibitors of SARS-CoV papain-like protease in yeast. 0.19% of 330,000 active. Potency, µM (titrated, usually from 32.9 µM), without a hit: at the top dose activity, positive = growth rescue. S. cerevisiae expressing SARS-CoV PLpro, growth rescue; control for the full effect not named in the record; note: 0% is about no effect; nearly all actives have a fitted effect of over 55% in size; growth read by luminescence after 48 h
# Cruzain noTriton – inhibitors of Trypanosoma cruzi cruzain without detergent; P25779; purified cruzain, Z-FR-AMC fluorescence, no detergent; Potency, µM, inactives show max response, negative = inhibition, most hits filed as inhibitors; 2.3% of 200,000 active; AID 1476; active = well fitted curve in the direction sought with a large enough effect; inconclusive = small, poorly fitted or top-dose-only effect, or another doubt; inactive = no such curve, though single readings can be large; an effect the other way counts as inactive or inconclusive;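 note: plate controls were enzyme without inhibitor for no effect and buffer without enzyme for full effect; nearly all actives have a fitted effect of over 40% in size; top concentration of the series not given in the record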
#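 Purified cruzain at 1.5 nM, pre-incubated 15 min with compound at room temperature in 100 mM sodium acetate pH 5.5, 5 mM DTT, 0.00005% Triton X-100. Reaction started with 2 uM Z-FR-AMC; AMC fluorescence increase over 60 s gives rate.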
# * hit, by the source's call; ? = inconclusive; · = not tested or not shown; & = joins results of further samples; [ ] = dose if it differs, or a comment. Unless noted, calls come from the whole dose curve; as a rule, active means well fitted rising curve with a large enough effect; inconclusive means small, poorly fitted or top-dose-only effect; inactive means no such curve, though single readings can be large or run the other way. Potency is the fitted concentration of half-maximal effect.
SMILES	MARV entry inh	StopGo reporter	NS1 function inh	RE007 growth inh	SARS PLpro yeast	Cruzain inh Det	Lassa entry inh	Cruzain noTriton
NC(=O)[C@@H]1CCCN1Cc1nc(Cc2cccc(C(F)(F)F)c2)no1	-10%[46.1 µM]	0%	7%	8%	1%	·	-15%	·
O=C(Nc1ccc(Oc2ccccc2)cc1)N[C@@H](Cc1ccccc1)C(=O)O	?	-11%	1%	5%	14%	·	-8%[46.1 µM]	·
Cc1ccccc1C(=O)N1CCN(c2nc(N3CCOCC3)nc(N3CCOCC3)n2)CC1	-10%	12%	-47%	5%	1%	2.0%	?	?
O=C(CCNC(=O)c1ccccc1Cl)Nc1nc2ccccc2[nH]1	-1%	32%[activator]	·	-3%	-2%	·	?	·
Cc1ccc2cc(CCNC(=O)c3ccco3)c(=O)[nH]c2c1C	?	21%	-43%	14%	-3%	-23%	-29%	?
O=C(Nc1nnc(-c2ccccc2)o1)Nc1ccc(F)cc1F	21%[46.1 µM]	-1%	0%	9%	0%	·	8%	·
Cn1nc(-c2ccccc2)c(C(O)c2ccc(Cl)cc2)c1Cl (configuration not stated)	-2%	-8%	-3%	9%	5%	-1.3%	6%	-8%
COc1cccc(NC(=O)CN(C2=NC3CS(=O)(=O)CC3S2)c2cccc(C)c2)c1 (configuration not stated)	·	?	9%	8%	-2%	·	·	·
O=C(Cn1cc([N+](=O)[O-])cn1)Nc1nc2ccccc2s1	0%	·	1%	-18%	-6%	-4.1%	27%	2%
CCC(C)(C(=O)NC1CCCCC1)N(Cc1ccco1)C(=O)c1ccccn1 (configuration not stated)	-2%	-19%	8%	-9%	0%	4.8%	1%	-4%
Cc1ccc(-n2nc(C(=O)N3CCN(c4cccc(C(F)(F)F)c4)CC3)c3c4ccccc4n(C)c3c2=O)cc1	-2%[46.1 µM]	-19%	·	·	·	0.3%	1%[46.1 µM]	-10%
O=[N+]([O-])c1ccc(/C=C/C2=NN(c3ccccc3)C(c3ccco3)C2)o1 (configuration not stated)	15%[46.1 µM]	-14%	·	-19%	-8%	·	19%	·
Cc1cccc(OCC(=O)OCc2cc(=O)n3nc(C4CC4)sc3n2)c1	·	-15%	·	·	·	-3.5%	2%[46.1 µM]	-4%
N#Cc1nc(Cc2ccccc2)oc1N1CCN(c2cccc(Cl)c2)CC1	0%	?	-6%	4%	0%	2.7%	-28%	-6%
c1cncc(-c2nc(NCc3ccco3)c3ccccc3n2)c1	-33%	-19%	-6%	-18%	?	-3.3%	14%	3%
CC(CCO)Nc1nc2c([nH]1)c(=O)n(C)c(=O)n2C (configuration not stated)	17%	·	0%	1%	-9%	0.4%	7%	-8%
O=C(Nc1nccs1)c1nc(-c2ccccc2)n(-c2ccccc2)n1	5%	?	-2%	-4%	-3%	-3.2%	-7%	1%
CCCNc1ccc(-c2nc(-c3ccncc3)no2)cc1[N+](=O)[O-]	27%[46.1 µM]	25%	·	·	·	-4.6%	2%[46.1 µM]	-10%
O=C(ONC(=O)C1C2C=CC(C2)C1C(=O)NOC(=O)c1ccccc1)c1ccccc1 (configuration not stated)	4µM*	-24%	·	?	·	·	7.9µM*	·
O=C1CN(C(=O)/C=C/c2ccc(Br)cc2)CCN1	17%	23%	-1%	-3%	0%	·	?	·
O=c1oc2cc(O)c(Cl)cc2c2ccccc12	?	-12%	-23%	25%	-29%	-7.7%	12%	-20%
COc1cc(C)c(CNc2ccc(OC)c(OC)c2)cc1C	3%	·	-3%	·	5%	6.3%	·	-12%
Cc1ccc(S(=O)(=O)N2CCCN(C(=O)CNC(=O)c3ccccc3)CC2)cc1	0%	-12%	·	32%	1%	·	-5%	·
Cn1cc(S(=O)(=O)N2CCC(Cc3ccccc3)CC2)c(=O)n(C)c1=O	·	-17%	-6%	-4%	0%	1.7%	·	10%
N/C(=N\NC(=O)c1ccc(Cl)cc1)c1cnccn1	?	67%[activator]	-1%	-22%	-1%	·	1%[46.1 µM]	·
CCn1cc(C(=O)NCc2ccc3c(c2)OCO3)c2cc(OC)c(OC)cc2c1=O	-20%	-12%	-4%	-7%	8%	1.4%	3%	?
CCNc1cccc2c1C(=O)N(C)C2=O	1%	·	-4%	-18%	2%	0.7%	5%	8%
COC(=O)N/C(C)=C1/NC(=O)c2ccccc2C(c2ccccc2)N1 (configuration not stated)	4%	-15%	4%	-1%	1%	-0.5%	0%	-14%
CCOCCCNC(=O)c1cn(C)c(=O)c2cc(OC)c(OC)cc12	-19%	-3%	4%	3%	0%	4.2%	?	-1%
COc1ccc(NC(=O)CNC(=O)c2nn(-c3ccc(OC)c(Cl)c3)c(=O)c3ccccc23)c(OC)c1	?	-19%	4%	-6%	-4%	·	?	·
CC1CCCC(C)N1C(=O)COC(=O)c1cc(S(=O)(=O)N2CCOCC2)ccc1Cl (configuration not stated)	19%	-30%	·	5%	2%	·	12%[46.1 µM]	·
COc1ccc2c3c(c(=O)oc2c1OCC(N)=O)CCCC3	0%	-1%	-15%	10%	0%	-18%	12%	11%
COc1ccc(Nc2nc(-c3ccccc3O)nc3ccccc23)cc1	?	?	-3%	1%	-7%	·	-21%	·
O=C(c1cccs1)N1CCC(c2nc3c(nnn3Cc3cccc(Cl)c3)c(=O)[nH]2)CC1	2%[46.1 µM]	-27%	9%	9%	-1%	·	?	·
CCc1nc(SCC(=O)N2CCCC2)c2c(=O)n(C)c(=O)n(C)c2n1	3%	-21%	18%	-8%	5%	·	3%	·
COc1ccc(CCN=C(N)NS(=O)(=O)c2cccs2)cc1OC	?	-22%	·	6%	2%	·	0%	·
O=C(Nc1cccnc1)c1ccc(Cl)c(S(=O)(=O)N2CCCCC2)c1	3%[46.1 µM]	0%	-8%	9%	-4%	·	-2%[46.1 µM]	·
CC1(C)SC(=S)N(/N=C/c2ccc(O)cc2)C1N(O)C(=O)Nc1ccc([N+](=O)[O-])cc1 (configuration not stated)	?	18%	3%	-5%	-10%	-26%	?	-30%
CCn1cc(C(=O)NCc2ccco2)c(=O)c2cc(S(=O)(=O)N3CCCC3)ccc21	-18%[46.1 µM]	9%	·	-14%	2%	·	1%[46.1 µM]	·
CCN(Cc1ccccc1)CC(O)COc1ccccc1 (configuration not stated)	?	-8%	5%	1%	-4%	2.2%	-17%	-4%

# Looked up above.
# StopGo reporter with CC1CCCC(C)N1C(=O)COC(=O)c1cc(S(=O)(=O)N2CCOCC2)ccc1Cl (configuration not stated) → -30%
# Cruzain noTriton with N#Cc1nc(Cc2ccccc2)oc1N1CCN(c2cccc(Cl)c2)CC1 → -6%

# Following part
SMILES	MARV entry inh	StopGo reporter	NS1 function inh	RE007 growth inh	SARS PLpro yeast	Cruzain inh Det	Lassa entry inh	Cruzain noTriton
Cc1ccc(NC(=O)Cn2nc(C(=O)O)c3ccccc3c2=O)cc1S(=O)(=O)N1CCCCCC1	15%	-28%	·	17%	·	·	4%	·
CC1=CC(=C(C#N)c2nc3ccccc3s2)C=C(C)N1c1ccc(F)cc1	-5%	34%[activator]	1%	-4%	3%	-4.8%	4%	?
COc1ccc(CC(=O)NC2CCS(=O)(=O)C2)cc1 (configuration not stated)	13%[46.1 µM]	1%	·	1%	-1%	·	26%	·
CCCc1[nH]n(-c2ccc([N+](=O)[O-])cc2)c(=O)c1C=NCCCn1ccnc1	10%[46.1 µM]	-8%	6%	-14%	-1%	·	4%	·
COc1ccc(N(CC(=O)N2CCN(c3ccccc3F)CC2)S(=O)(=O)c2ccc(C)cc2)cc1	-4%	20%	8%	11%	2%	·	-2%	·
O=C(O)c1ccc(NC2=C(n3nnc4ccccc43)C(=O)c3ccccc3C2=O)cc1	?	0%	7%	7%	1%	·	?	·
N#C/C(=C\c1c[nH]c2ccccc12)C(=O)c1ccc(O)c(O)c1	?	·	25%	·	·	-5.2%	?	7%
O=C(Nc1ccc2ccccc2c1)c1nn(C23CC4CC(CC(C4)C2)C3)cc1Br	?	-22%	2%	-4%	-13%	4.2%	-16%	10µM*
Cc1no[n+]([O-])c1COc1ccc(/C=C2\NC(=S)NC2=O)cc1	2%[46.1 µM]	-22%	5%	20%	0%	-6.7%	16%	32µM*
CN1CCN(c2nc(-c3ccc(Cl)cc3)cc(=O)[nH]2)CC1	12%[46.1 µM]	0%	0%	6%	-9%	·	-5%[46.1 µM]	·
CC(=O)Nc1ccc(-n2c(CCC(=O)O)ccc2-c2ccc(Br)cc2)cc1	9%[46.1 µM]	-23%	·	·	·	-12%	-13%[46.1 µM]	2%
N#Cc1ccc(C(CC(=O)O)N2Cc3ccccc3C2=O)cc1 (configuration not stated)	·	3%	-3%	0%	0%	·	·	·
COc1cc(C(=O)NCCC(=O)NCc2c(F)cc(F)cc2F)cc(OC)c1OC	·	3%	0%	-11%	3%	·	·	·
COc1ccc(Cn2ccc3nc(C)c(C(=O)NCc4cccc(OC)c4)cc3c2=O)cc1	·	-19%	·	·	·	-5.3%	-21%[46.1 µM]	?
CN(C)c1nc(SCCOC(=O)COc2ccc(Cl)cc2Cl)nc(N(C)C)n1	14%&1%	·	-7%	6%	-21%	0.8%	-25%	1%

# Reformatted with values under each structure: entries from further up
# Values run as follows: MARV entry inh, StopGo reporter, NS1 function inh, RE007 growth inh, SARS PLpro yeast, Cruzain inh Det, Lassa entry inh, Cruzain noTriton
CC1=CC(=C(C#N)c2nc3ccccc3s2)C=C(C)N1c1ccc(F)cc1
 : -5%, 34%[activator], 1%, -4%, 3%, -4.8%, 4%, ?
CC(=O)Nc1ccc(-n2c(CCC(=O)O)ccc2-c2ccc(Br)cc2)cc1
 : 9%[46.1 µM], -23%, ·, ·, ·, -12%, -13%[46.1 µM], 2%
O=C(Nc1ccc2ccccc2c1)c1nn(C23CC4CC(CC(C4)C2)C3)cc1Br
 : ?, -22%, 2%, -4%, -13%, 4.2%, -16%, 10µM*
N#C/C(=C\c1c[nH]c2ccccc12)C(=O)c1ccc(O)c(O)c1
 : ?, ·, 25%, ·, ·, -5.2%, ?, 7%
